KCNQ2 pot: potentiators of rat KCNQ2 potassium channel; O88943; CHO-K1 KCNQ2, FluxOR thallium flux fluorescence; stronger effect = higher value; B-score at 10 µM; actives 0.54% (n = 310,000); AID 2239;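 active means fluorescence ratio B-score at least 3 SD of library B-scores, with initial fluorescence B-score within 3 SD, cut at about 5.3 in these data; same plate scores as AID 2156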;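 further: B-score of peak minus minimum over baseline fluorescence ratio after K+ and Tl+ stimulus; positive B-score means potentiation of KCNQ2 with more thallium influx and brighter signal; only the inactives scoring about 0 or higher are listed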
Target sequence (O88943 whole entry, looked up): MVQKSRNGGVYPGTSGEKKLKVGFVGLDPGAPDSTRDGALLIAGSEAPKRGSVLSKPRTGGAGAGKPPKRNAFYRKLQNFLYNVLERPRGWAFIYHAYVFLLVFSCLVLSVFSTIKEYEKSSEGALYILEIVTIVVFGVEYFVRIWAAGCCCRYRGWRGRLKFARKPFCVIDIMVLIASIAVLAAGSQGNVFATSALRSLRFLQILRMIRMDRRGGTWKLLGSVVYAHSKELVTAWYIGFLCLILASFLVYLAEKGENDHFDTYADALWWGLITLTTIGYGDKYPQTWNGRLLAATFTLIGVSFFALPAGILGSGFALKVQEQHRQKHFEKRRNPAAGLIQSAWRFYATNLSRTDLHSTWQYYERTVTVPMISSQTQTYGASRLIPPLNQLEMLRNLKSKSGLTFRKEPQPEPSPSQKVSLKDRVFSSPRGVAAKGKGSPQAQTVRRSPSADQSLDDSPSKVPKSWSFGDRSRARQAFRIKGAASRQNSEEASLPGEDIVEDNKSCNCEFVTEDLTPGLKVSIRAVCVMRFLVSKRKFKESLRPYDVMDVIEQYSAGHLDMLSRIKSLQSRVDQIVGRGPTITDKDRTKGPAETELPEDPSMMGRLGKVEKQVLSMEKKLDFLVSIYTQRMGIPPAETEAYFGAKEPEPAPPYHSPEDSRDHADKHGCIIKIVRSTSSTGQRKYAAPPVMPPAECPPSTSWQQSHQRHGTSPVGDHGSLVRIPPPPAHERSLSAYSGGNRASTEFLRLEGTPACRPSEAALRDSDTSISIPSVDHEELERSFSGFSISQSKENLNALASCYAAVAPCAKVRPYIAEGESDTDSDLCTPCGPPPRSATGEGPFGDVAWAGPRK
KCNQ2 pot baseline: further read-out of KCNQ2 pot, marked with its call; B-score; compound at 10 µM; measured here: initial fluorescence intensity artifact check;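 brightness before thallium and not channel activity; 0 = typical well and far values either way flag optical interference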
* = called active by the depositor. Only part of the results is shown; rates above refer to the full screens.

KCNQ2 pot	KCNQ2 pot baseline	Compound
0.09	0.49	CC1CN(c2ncnc3c2cnn3-c2ccc(Cl)cc2)CC(C)O1 (configuration not stated)
0.44	-0.51	Cc1cc(NC(=O)CSc2nncn2N)no1
2.69	-2.07	CCc1ccc2[nH]c(=O)c(CN(CCN(C)C)C(=O)Nc3ccccc3OC)cc2c1
0.45	-0.24	COc1cccc(CN2CC(C(=O)NCCCCc3ccccn3)CCC2=O)c1 (configuration not stated)
0.82	1.63	O=C(CN1C(=O)c2ccccc2C1=O)OCC(=O)N1CCN(c2ccccc2)CC1
0.82	-2.49	CCNc1nc(NCC)n2c(SCC(=O)Nc3ccc(F)cc3[N+](=O)[O-])nnc2n1
0.08	2.5	CCOc1ccc(C2=CC(c3ccccc3)n3ncnc3N2)cc1 (configuration not stated)
0.32	-0.7	C/C=C/C=N/Nc1nc(C)cc(=O)[nH]1
0.06	-1.69	CCOc1ccc(-n2c(=O)cc(N3CCN(c4ccccc4)CC3)[nH]c2=O)cc1
0.86	2.06	O=C(NCCCN1CCOCC1)c1nn2c(C(F)(F)F)cc(-c3ccco3)nc2c1Cl
0.74	-0.97	O=C(NCC1CCCO1)c1cccc(-n2cnnn2)c1 (configuration not stated)
0.7	-1.37	Cc1ccc(OCCSc2nc3ncnc(N)c3[nH]2)cc1
1.01	-0.92	COc1ccc(Sc2nnc(-c3ccccc3)cc2C#N)cc1
0.26	-0.84	O=C(c1ccco1)N1CCN(C(=O)c2cnn3c(C(F)(F)F)cc(-c4cccs4)nc23)CC1
1.1	0.08	O=C(CCNS(=O)(=O)c1cccc2nonc12)N1CCN(c2cccc(Cl)c2)CC1
0.13	-1.88	O=C(CCN1C(=O)c2ccccc2C1=O)NC1=NCCS1

Some of these compounds in order of the KCNQ2 pot baseline value, descending:
| smiles | KCNQ2 pot | KCNQ2 pot baseline |
| --- | --- | --- |
| CCOc1ccc(C2=CC(c3ccccc3)n3ncnc3N2)cc1 (configuration not stated) | 0.08 | 2.5 |
| O=C(CN1C(=O)c2ccccc2C1=O)OCC(=O)N1CCN(c2ccccc2)CC1 | 0.82 | 1.63 |
| O=C(CCNS(=O)(=O)c1cccc2nonc12)N1CCN(c2cccc(Cl)c2)CC1 | 1.1 | 0.08 |
| O=C(c1ccco1)N1CCN(C(=O)c2cnn3c(C(F)(F)F)cc(-c4cccs4)nc23)CC1 | 0.26 | -0.84 |
| CCOc1ccc(-n2c(=O)cc(N3CCN(c4ccccc4)CC3)[nH]c2=O)cc1 | 0.06 | -1.69 |
| O=C(CCN1C(=O)c2ccccc2C1=O)NC1=NCCS1 | 0.13 | -1.88 |
| CCNc1nc(NCC)n2c(SCC(=O)Nc3ccc(F)cc3[N+](=O)[O-])nnc2n1 | 0.82 | -2.49 |

Single entries from above:
In KCNQ2 pot baseline, O=C(CCNS(=O)(=O)c1cccc2nonc12)N1CCN(c2cccc(Cl)c2)CC1 has 0.08
In KCNQ2 pot baseline, COc1ccc(Sc2nnc(-c3ccccc3)cc2C#N)cc1 has -0.92

Remaining list, next part:
KCNQ2 pot	KCNQ2 pot baseline	Compound
0.26	-0.99	COc1cc2c(cc1OC)CN(C(=O)c1ccc(Br)o1)CC2
0.28	-0.53	CCOC(=O)C1CCCN(C(=O)C2CCCN(S(C)(=O)=O)C2)C1 (configuration not stated)
0.05	0	O=P(O)(CCCP(=O)(O)CCc1ccccc1)CCc1ccccc1
0.56	1.33	CCOc1ccc(C2/C(=C(\O)c3cccc(OC)c3)C(=O)C(=O)N2c2cc(C)on2)cc1OC (configuration not stated)
1.08	-0.03	O=C(O)c1ccc(/C=N/NC(=S)NCc2ccccc2)cc1
1.07	-1.46	Cc1c(NC(=O)CSc2nc3c(cnn3-c3ccccc3)c(=O)[nH]2)c(=O)n(-c2ccccc2)n1C
0.07	2.72	CCn1c(SCC(=O)N2CCN(C)CC2)nc2c1c(=O)n(C)c(=O)n2C
0.59	0.05	O=C(COc1cc(F)ccc1[N+](=O)[O-])Nc1ccc(N2CCOCC2)cc1
1.4	-0.53	CCOC(=O)C(C)n1cnc2c(oc3ccccc32)c1=O (configuration not stated)
0.97	0.2	COc1cccc(C(O)Cc2nc3ccccc3n2C)c1OC (configuration not stated)
0.64	-0.95	CC1(C)Oc2cc3oc(-c4cc(O)cc(O)c4)cc3cc2CC1O (configuration not stated)
0.73	0.76	Cc1cc(C)n(C(=O)c2ccc([N+](=O)[O-])cc2[N+](=O)[O-])n1
0.67	0.2	Cc1ccccc1NS(=O)(=O)c1ccc(OCC(=O)NCc2cccnc2)cc1
0.25	1	O=C(NCC(c1cccs1)N1CCOCC1)C1CCN(S(=O)(=O)c2c(Cl)cccc2Cl)CC1 (configuration not stated)
0.44	-0.25	COc1ccc(NC(=O)C2CCCN2S(=O)(=O)c2ccc(C)cc2)cc1 (configuration not stated)
1.36	-1.33	Cc1ccc(N(C(C)C(=O)N2CCOCC2)S(C)(=O)=O)cc1C (configuration not stated)
2.85	0.01	COc1ccc2c(c1)CCCC21SC(NC(C)=O)=NN1C(C)=O (configuration not stated)
0.81	0.59	CCOc1ccccc1NC(=O)C(=O)NCC1CCCN1CC (configuration not stated)
0.31	-0.31	CCOC(=O)c1sc2nc(CC(=O)OC)nc(NCCN3CCOCC3)c2c1C
1.9	0.38	Clc1nc(Cl)nc(-c2cn(-c3ccccc3)c3ccccc23)n1
0.9	-0.72	COCCn1c(SCC(=O)Nc2ccc(OC)c(S(N)(=O)=O)c2)nc2ccccc21
0.24	-1.48	NC(=S)Nc1cccc(O)c1
23.2*	0.93*	N#Cc1c(-c2ccc(F)cc2)cc(C2CC2)nc1SCC(=O)c1cccs1
2.21	0.09	CN(C)CCCn1c2c(c(SCC(=O)Nc3ccc4c(c3)OCO4)nc1=O)CCC2
0.79	0.43	COc1ccc2oc(-c3ccccc3)c(C(=O)N(C)C)c2c1
2.2	-1.42	Cc1ccc(CCNC(=O)C2CCN(S(=O)(=O)c3c(C)nn(C)c3C)CC2)cc1
0.64	-0.01	O=C(NCc1ccccn1)C(=O)NCC1OCCN1S(=O)(=O)c1ccc([N+](=O)[O-])cc1 (configuration not stated)
1.37	-2.33	C=CCCC(=O)NC1CC(C)(C)Cc2c1cnn2-c1ccc(OC)cc1 (configuration not stated)
0.65	0.32	CC(Oc1ccc([N+](=O)[O-])cc1)C(=O)NCCCN1CCOCC1 (configuration not stated)
0.01	-1.11	COC(=O)[C@@](C)(O)C1(C(=O)SC(C)(C)C)CC1
1.5	-0.81	Cc1ccc(NC(=S)NCCN2CCOCC2)cc1C
0.82	-0.59	Cc1ccc(C)c(N(C(=O)CNC(=O)c2ccco2)C(C(=O)NC2CCCC2)c2ccncc2)c1 (configuration not stated)
1.21	0.65	Cc1ccc(S(=O)(=O)NC(C)(C)C)cc1C(=O)OCC(=O)N1CCCC1=O
1.52	0.05	O=C(CN1CCN(c2ccccn2)CC1)N1CC(O)CO1 (configuration not stated)
1.16	0.2	C=CCn1c(-c2cccnc2Cl)nc2cc(Cl)c(Cl)cc21
0.15	0.86	Cc1nnc(NC(=O)c2c(F)c(F)c(F)c(F)c2F)s1
0.55	0.36	COc1ccc(Nc2nc(NCCN3CCOCC3)nc(Nc3ccc(OC)cc3)n2)cc1
0.66	1.38	CCCn1c(SC/C(O)=C(\C#N)c2nc3ccccc3[nH]2)n[nH]c1=O
1.11	0.1	O=C1CC(NS(=O)(=O)c2ccccc2)CN1c1ccc2c(c1)OCCO2 (configuration not stated)
0.24	-0.19	CCOC(=O)CC(N)c1ccc2c(c1)OCO2 (configuration not stated)
0.48	-3.13	CCN1C(=O)[C@H]2[C@@H](c3ccc(C)cc3)N3C(=O)N(c4ccc(OC)cc4)C(=O)[C@@]3(Cc3ccc(Cl)cc3)[C@H]2C1=O
0.24	-0.58	Cc1ccc(CCNC(=O)C2=CCN(S(=O)(=O)c3ccccc3)CC2)cc1
0.45	-0.71	CC1CCN(c2nc(N(C)c3ccccc3)nc(N)c2[N+](=O)[O-])CC1
0.02	-1.21	Cn1c(CN2CCN(C(=O)c3ccc(F)cc3)CC2)nc2cc([N+](=O)[O-])ccc21
1.73	0.26	CC1(C)O[C@@H]1COc1c2ccoc2cc2oc(=O)ccc12
0.64	-0.04	C/C(Cn1nnc([N+](=O)[O-])n1)=N\NC(=O)c1ccc(O)cc1O
0.13	-0.01	O=C(COC(=O)c1cccc(OC(F)F)c1)NC1CCCC1
0.07	-0.43	CC(=O)c1ccc(OCCCCCCCOc2ccc(C(C)=O)cc2)cc1
1.43	-0.45	NC(=O)c1ccccc1Nc1nc2nc3ccccc3c(=O)n2cc1Br
1.18	-2.65	COc1ccc(C2C3=C(CC(C)(C)CC3=O)Oc3ncn(CC(C)C)c(=N)c32)cc1 (configuration not stated)
0.38	1.13	Cn1c(Cn2c(=O)sc3ccccc32)nnc1SCc1cccc(F)c1
1.11	-1.07	O=C1C(C=NCCN2CCOCC2)=C(O)c2ccccc21
1.56	-0.91	CCc1nnc(NC(=O)c2ccc3c(c2)C(=O)N(CC)C3=O)s1
0.82	1.82	Cc1nonc1NC(=O)CSc1nc2ccc(Cl)cc2[nH]1
0.68	-1	O=c1c(Cl)c(NCC2CCCO2)cnn1C12CC3CC(CC(C3)C1)C2 (configuration not stated)
0.5	1.33	COC(=O)Cc1cc(=O)[nH]c(/N=C(\N)Nc2ccc(C(C)C)cc2)n1

For convenience, part of the list above:
KCNQ2 pot	KCNQ2 pot baseline	Compound
0.09	0.49	CC1CN(c2ncnc3c2cnn3-c2ccc(Cl)cc2)CC(C)O1 (configuration not stated)
0.44	-0.51	Cc1cc(NC(=O)CSc2nncn2N)no1
2.69	-2.07	CCc1ccc2[nH]c(=O)c(CN(CCN(C)C)C(=O)Nc3ccccc3OC)cc2c1
0.45	-0.24	COc1cccc(CN2CC(C(=O)NCCCCc3ccccn3)CCC2=O)c1 (configuration not stated)

(list continues)
KCNQ2 pot	KCNQ2 pot baseline	Compound
1.69	0.32	Cn1nnnc1SCCNC(=O)C1CCC(=O)N(CCc2ccccc2)C1 (configuration not stated)
1.4	0.48	Nc1c(-c2ccc(Cl)cc2)cnc2c(-c3ccccc3)cnn12
0.39	2.2	Cc1csc(=O)n1CCC(=O)O
0.1	-0.51	Cc1ccccc1CC(=O)N1CCOCC1
0.63	-0.5	COc1ccc(NC(=O)CN(C)C(=O)CSc2nc3ccccc3s2)cc1
0.29	-1.77	CN1CCC(N2CCN(c3cccc(C(F)(F)F)c3)CC2)CC1
1.51	0.24	CCOc1c2ccc(C(=O)NCc3ccc(C)cc3)cc2nn1CC
0.87	-0.2	CCOC(=O)Cn1nc(C)c2ccccc2c1=O
1.02	0.79	C/C(Cn1nnc([N+](=O)[O-])n1)=N\NC(=O)c1ccc(C)cc1
0.11	1.57	CCOC(=O)C1CCN(C(=O)CCc2c(C)nc3cc(-c4ccccc4)nn3c2C)CC1
0.26	0.15	COc1ccc(/C=C/C(=O)N2CCOCC2)cc1OC
1.66	-1.55	O=C(NCCCN1CCOCC1)C1CCN(S(=O)(=O)c2cccc(Cl)c2Cl)CC1
1.24	-1.13	O=C(COC(=O)/C=C/c1cccc(F)c1)NNC(=O)c1ccccc1
1.08	0.06	CCn1cc(C(=O)O)c(=O)c2cnc(N3CCN(C(=S)Nc4ccccc4C(F)(F)F)CC3)nc21
0.16	1.18	COc1ccc(S(=O)(=O)N(C)CC(=O)Nc2c(F)cccc2F)cc1
0.48	0.12	O=C(NC1=NCCS1)Nc1ccccc1
2.12	-0.1	CCOc1ccc(OCC)c(NC(=O)CSc2nnnn2CC)c1
0.86	-2.54	CCC(c1nnc(SCC(=O)NCCc2ccc(Cl)cc2Cl)o1)N(C)C (configuration not stated)
0.48	-0.1	O=C(c1ccccc1)N1CCN(C(=O)c2cc3nc(-c4ccccc4)cc(C(F)(F)F)n3n2)CC1
0.71	-1.64	CCN(CC)CCC(c1ccc(N(C)C)cc1)c1c(OC)cc(OC)c2ccc(=O)oc12 (configuration not stated)
1.66	-1.14	COc1ccc(C(=O)Cc2ccc(OC)c(OC)c2)cc1
1.04	-0.48	COC(=O)c1cnn(-c2ccccc2)c1C(OC)OC
0.97	0.64	O=C(COc1ccccc1)NCc1n[nH]c(=S)n1-c1ccccc1
0.07	-1.73	COc1cc(N)c(Cl)cc1C(=O)OCC(=O)NC1CCCC1
0.67	-1.27	CCN(CC)CCN1C(=O)C(=O)/C(=C(/O)c2c(C)[nH]c(C(=O)OC)c2C)C1c1ccco1 (configuration not stated)
0.03	-0.44	CCc1nn(CCCC(=O)N2CCN(c3cccc(C)c3C)CC2)c(=O)c2cc3occc3n12
1.96	-1.17	COc1ccc(CNC2CCSc3ccccc32)cc1OC (configuration not stated)
1.69	-2.54	COc1ccc(CN(CC(=O)NCc2ccc(F)cc2)C(=O)c2csnn2)cc1
0.27	-0.77	O=C(c1ccccc1F)N(Cc1nc2ccccc2c(=O)[nH]1)C1CCCC1
0.91	0.45	O=C(NC1CCCCC1NC(=O)c1cccs1)c1cccs1 (configuration not stated)
1.62	0.38	CN(C)C(=O)Cn1c(SCC(=O)Nc2ccc3c(c2)OCO3)nc2ccccc21
0.35	-0.64	Cc1cccc(CN2CCC(C(=O)Nc3ccc(Oc4cccnc4)cc3)CC2)c1
2.08	0.29	COc1ccc(OC)c(NC(=O)c2cc(OC(C)=O)cc(C(=O)Nc3cc(OC)ccc3OC)c2)c1
0.3	1.67	COc1cc2[nH]c(=O)n(CCC(=O)N3CCN(c4cccc(C)c4C)CC3)c(=O)c2cc1OC
0.42	1.42	CCOCCCNC(=O)C1(O)c2ccccc2NC(=O)N1c1ccc(C)c(C)c1 (configuration not stated)
0.23	1.11	CCSCc1nnc(SCC(=O)Nc2cccc(SC)c2)n1C
0.21	-0.96	COC(=O)[C@H]1C[C@H]1[C@@H](NC(=O)c1ccc[nH]1)c1ccccc1
0.21	1.66	CCOc1ccc(C(=O)NCC(=O)Nc2ccc(N3CCOCC3)cc2)cc1OCC
0.1	1.38	COc1ccc(-c2nnc(NC(=O)C(C)C)o2)cc1
0.85	0.17	O=C(N1CCCC1)C12CC3CC(C1)CC(C(=O)N1CCCC1)(C3)C2
